Screening results as filed in PubChem.
NOMO-1 viab – STK33 inhibitor candidate reducing NOMO-1 cell viability | NOMO-1 AML viability, CellTiter-Glo luminescence, 72 h | inhibition, % (test concentration not listed) | 37,000 tested, 7.5% active | AID 2330;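 active = most replicates above 80%; inconclusive = exactly half above 80%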;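 note: wells of about 30 µL received 25 nL stock; 0% = median of vehicle wells and 100% = reference inhibitor level; the first replicate is given; inactives centre near 10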
An asterisk follows results filed as active; u = inconclusive.

SMILES	NOMO-1 viab
Cc1noc(C)c1S(=O)(=O)Nc1ccc2c(c1)CC(=O)N([C@H](C)CO)C[C@@H](C)[C@@H](CN(C)Cc1ccc(C(F)(F)F)cc1)O2	44
NC(CC(=O)O)c1cccc([N+](=O)[O-])c1 (stereo unspecified)	-16
C[C@H]1CN([C@@H](C)CO)C(=O)Cc2cc(NC(=O)Nc3ccccc3)ccc2O[C@H]1CN(C)S(=O)(=O)c1cn(C)cn1	0
N#Cc1cc(C#N)c(SCC(=O)NCc2ccco2)nc1N	u
C[C@@H]1CN([C@H](C)CO)C(=O)Cc2cc(NC(=O)Nc3ccccc3)ccc2O[C@H]1CN(C)Cc1ccc(C(=O)O)cc1	-3
COc1ccc(S(=O)(=O)N(C)C[C@@H]2Oc3ccc(NC(=O)Cn4cnnn4)cc3CC(=O)N([C@H](C)CO)C[C@H]2C)cc1	-22
CNC[C@H]1OCCCC[C@@H](C)Oc2ccc(NS(=O)(=O)c3ccc(OC)cc3)cc2C(=O)N([C@H](C)CO)C[C@@H]1C	10
C[C@H]1CN([C@@H](C)CO)C(=O)Cc2cc(NC(=O)Nc3ccc4c(c3)OCO4)ccc2O[C@@H]1CN(C)S(=O)(=O)c1cn(C)cn1	7
C[C@H](CO)N1C[C@H](C)[C@@H](CN(C)Cc2ccc(C(=O)Nc3ccccc3N)cc2)Oc2c(NC(=O)c3ccc(-c4nccs4)cc3)cccc2C1=O	138*
C[C@H]1CN([C@@H](C)CO)C(=O)Cc2cc(NS(=O)(=O)c3cccs3)ccc2O[C@@H]1CN(C)Cc1ccc(Oc2ccccc2)cc1	78
COc1ccc(S(=O)(=O)NCc2ccco2)cc1[N+](=O)[O-]	-2
Cc1ccc(N(Cc2ccc(C(=O)Nc3cc([N+](=O)[O-])ccc3C)cc2)S(C)(=O)=O)cc1C	4
COC(=O)Nc1scc(-c2ccccc2)c1C(=O)NCc1ccco1	29
Cc1noc(C)c1NC(=O)N(C)C[C@H]1Oc2ccc(NC(=O)C3CCCCC3)cc2CC(=O)N([C@H](C)CO)C[C@H]1C	-3
CC1(C)CC(NC(=O)c2ccccc2C(=O)NC2CC(C)(C)NC(C)(C)C2)CC(C)(C)N1	-5
COc1cc(SC)ccc1C(=O)NCCc1c[nH]c2ccccc12	6
Cc1noc(C)c1NC(=O)N(C)C[C@H]1Oc2ccc(NS(=O)(=O)c3ccccc3)cc2C(=O)N([C@H](C)CO)C[C@H]1C	28
CCN(CC)C(=S)Oc1ccccc1C(=O)Nc1ccc(Cl)c(Cl)c1	14
CNC[C@H]1Oc2ccc(NS(=O)(=O)c3c(C)noc3C)cc2CC(=O)N([C@H](C)CO)C[C@H]1C	-8
COc1ccc(NC(=O)Nc2cccc3c2O[C@H](CN(C)C(=O)Nc2ccccc2)[C@@H](C)CN([C@H](C)CO)C3=O)cc1	6
COc1ccc(CN(C)C[C@@H]2Oc3ccc(NC(=O)Nc4ccc(F)cc4)cc3C(=O)N([C@@H](C)CO)C[C@@H]2C)cc1	26
COc1ccc(NC(=O)Nc2ccc3c(c2)CC(=O)N([C@@H](C)CO)C[C@@H](C)[C@@H](CN(C)S(=O)(=O)c2ccc(C)cc2)O3)cc1	12
C[C@H](CO)N1C[C@H](C)[C@H](CN(C)S(C)(=O)=O)Oc2ccc(NC(=O)Cn3cnnn3)cc2CC1=O	-7
N#Cc1ccccc1Sc1ccccc1C(=O)Nc1cccc(CCc2ccccn2)c1	1
COc1ccc(CN(C)C[C@@H]2Oc3c(NC(=O)C4CCOCC4)cccc3C(=O)N([C@H](C)CO)C[C@H]2C)cc1	9

Entries from the list above containing a furan ring, fused or not:
SMILES	NOMO-1 viab
N#Cc1cc(C#N)c(SCC(=O)NCc2ccco2)nc1N	u
COc1ccc(S(=O)(=O)NCc2ccco2)cc1[N+](=O)[O-]	-2
COC(=O)Nc1scc(-c2ccccc2)c1C(=O)NCc1ccco1	29

Going on with the list:
SMILES	NOMO-1 viab
c1ccc(Cc2nn3c(C4COc5ccccc5O4)nnc3s2)cc1 (stereo unspecified)	2
CC1(C)CC(=O)c2c(O)cc(OCC(=O)c3ccc(-c4ccccc4)cc3)cc2O1	12
Cc1noc(C)c1S(=O)(=O)N(C)C[C@@H]1Oc2c(NC(=O)c3nc4ccccc4s3)cccc2C(=O)N([C@@H](C)CO)C[C@@H]1C	u
COc1ccc(S(=O)(=O)Nc2cccc3c2O[C@H](CN(C)CC2CCCCC2)[C@@H](C)CN([C@@H](C)CO)C3=O)cc1	10
C[C@H](CO)N1C[C@H](C)[C@H](CN(C)S(=O)(=O)c2cccs2)Oc2c(NC(=O)C3CCOCC3)cccc2C1=O	15
Cc1cc(C)nc(SCC(=O)N2CCN(c3nnc(-c4ccccc4)c4ccccc34)CC2)n1	-10
NS(=O)(=O)c1ccc(NC(=S)NCCN2CCOCC2)cc1	3
Cc1noc(C)c1S(=O)(=O)Nc1ccc2c(c1)C(=O)N([C@H](C)CO)C[C@H](C)[C@H](CN(C)Cc1ccc(C(=O)Nc3ccccc3N)cc1)OCCCC[C@@H](C)O2	139*
C[C@@H]1CN([C@H](C)CO)C(=O)c2cccc(NS(=O)(=O)c3ccc(Cl)cc3)c2O[C@H]1CN(C)C(=O)NC1CCCCC1	-9
O=S(=O)(NC1c2cccc3cccc(c23)C1Sc1ncccn1)c1ccccc1 (stereo unspecified)	13
COc1ccc(S(=O)(=O)Nc2ccc3c(c2)CC(=O)N([C@@H](C)CO)C[C@H](C)[C@H](CN(C)C(=O)NC2CCCCC2)O3)cc1	-2
C[C@H]1CN([C@@H](C)CO)C(=O)Cc2cc(NS(=O)(=O)c3cccs3)ccc2O[C@@H]1CN(C)C(=O)NC1CCCCC1	14
C[C@@H]1CN([C@@H](C)CO)C(=O)Cc2cc(NC(=O)NC3CCCCC3)ccc2O[C@@H]1CN(C)Cc1ccc(-c2ccccc2)cc1	38
Cc1ccc(S(=O)(=O)Nc2nc(C)cc(N3N=N3)n2)cc1	-18
C[C@@H]1CCCCO[C@@H](CN(C)S(=O)(=O)c2ccc(Cl)cc2)[C@@H](C)CN([C@H](C)CO)C(=O)c2cc(NC(=O)c3ccncc3)ccc2O1	-2
C[C@H]1CN([C@@H](C)CO)C(=O)c2cccc(NS(=O)(=O)c3cn(C)cn3)c2O[C@@H]1CN(C)C(=O)Nc1ccccc1	-9
COc1ccc(S(=O)(=O)N(C)C[C@H]2Oc3ccc(NC(=O)Nc4ccc5c(c4)OCO5)cc3C(=O)N([C@H](C)CO)C[C@H]2C)cc1	-12
C[C@@H]1CN([C@@H](C)CO)C(=O)c2cccc(NC(=O)Nc3ccc(F)cc3)c2O[C@@H]1CN(C)S(=O)(=O)c1ccc(F)cc1	85*
Cc1noc(C)c1S(=O)(=O)Nc1ccc2c(c1)CC(=O)N([C@H](C)CO)C[C@H](C)[C@H](CN(C)Cc1ccc(C(=O)O)cc1)O2	33
Cc1ccc(NC(=O)C(C)Sc2n[nH]c(C)n2)cc1 (stereo unspecified)	16
COC(=O)c1sc(N2C(=O)C(=O)C(C(=O)c3ccc(OC)c(C)c3)C2c2ccco2)nc1C (stereo unspecified)	22
CS(=O)(=O)N(CC(=O)Nc1ccc(Br)cc1F)c1cccc([N+](=O)[O-])c1	-11
C[C@H](CO)N1C[C@H](C)[C@@H](CN(C)C(=O)Nc2ccc3c(c2)OCO3)Oc2c(NC(=O)c3ccc(-c4nccs4)cc3)cccc2C1=O	32
C[C@H](CO)N1C[C@H](C)[C@H](CN(C)C(=O)NC2CCCCC2)Oc2c(NC(=O)C3CCOCC3)cccc2C1=O	17
NC(=O)C1CC(=O)N(c2ccc(OCC(=O)Nc3cc(Cl)cc(Cl)c3)cc2)C1 (stereo unspecified)	30
Next compounds:
SMILES	NOMO-1 viab
C[C@H]1CN([C@@H](C)CO)C(=O)c2cc(NC(=O)CCN3CCOCC3)ccc2O[C@@H]1CN(C)CC1CCCCC1	7
CCn1c(SCC(=O)Nc2ccc(Cl)c(Cl)c2)nnc1-c1ccccc1C	43
Cc1[nH]n(-c2nc3ccccc3[nH]2)c(=O)c1C1OC(=O)c2ccccc21 (stereo unspecified)	u
CCOC(=O)Cc1[nH]nc2c1C(C1CC=CCC1)C(C#N)=C(N)O2 (stereo unspecified)	114*
COc1ccc(S(=O)(=O)N(C)CC(=O)Nc2cccc(F)c2)cc1Cl	11
COc1ccc(S(=O)(=O)Nc2ccc3c(c2)CC(=O)N([C@H](C)CO)C[C@H](C)[C@H](CN(C)C(=O)NC2CCCCC2)O3)cc1	-1
CC(=O)c1cccc(NC(=O)CN(C2CCCCC2)S(C)(=O)=O)c1	-2
C[C@@H]1CN([C@@H](C)CO)C(=O)c2cc(NS(=O)(=O)c3cccs3)ccc2O[C@@H]1CN(C)Cc1ccc(C(F)(F)F)cc1	50
COc1ccc(S(=O)(=O)Nc2cccc3c2O[C@H](CN(C)S(C)(=O)=O)[C@H](C)CN([C@@H](C)CO)C3=O)cc1	14
Cn1c(SCC(=O)Nc2ccc(Oc3ccccc3)cc2)nnc1-c1ccccn1	6
CCn1c(SCC(=O)c2ccc(Br)cc2)nnc1-c1cccc(N)c1	38
CS(=O)(=O)N(CC(=O)Nc1ccc(C(F)(F)F)cc1)c1cccc(Br)c1	44
CC(C)NC(=O)Nc1ccc2c(c1)C(=O)N([C@H](C)CO)C[C@H](C)[C@@H](CN(C)S(C)(=O)=O)OCCCC[C@@H](C)O2	34
O=C(CSc1nc2sc3c(c2c(=O)[nH]1)CCCC3)Nc1ccccc1F	2
Cc1cccc(-n2c(SCC(=O)Nc3ccc(C)cc3Br)nnc2-c2ccncc2)c1	11
C[C@@H]1CN([C@H](C)CO)C(=O)Cc2cc(NS(=O)(=O)c3cn(C)cn3)ccc2O[C@@H]1CN(C)S(=O)(=O)c1cccs1	6
Nc1nc(SCC(=O)N2CCC(c3noc4ccc(F)cc34)CC2)n[nH]1	2
O=C(CCn1cccc(C(F)(F)F)c1=O)Sc1ccccc1	u
C[C@@H]1CN([C@@H](C)CO)C(=O)c2cccc(NS(=O)(=O)c3ccccc3)c2O[C@H]1CN(C)S(=O)(=O)c1ccc(F)cc1	22
C[C@H](CO)N1C[C@H](C)[C@H](CN(C)C(=O)Nc2ccc(F)cc2)Oc2c(NC(=O)C3CCCCC3)cccc2C1=O	17
COc1cc2c(cc1OC)CN(C(=O)CSc1ncnc3sc4c(c13)CCC(C)C4)CC2 (stereo unspecified)	-25
CC(C)NC(=O)N(C)C[C@H]1Oc2c(NS(=O)(=O)c3ccc(F)cc3)cccc2C(=O)N([C@H](C)CO)C[C@@H]1C	-12
C[C@@H]1CN([C@H](C)CO)C(=O)c2cccc(NS(=O)(=O)c3ccc(Cl)cc3)c2O[C@@H]1CN(C)CC1CCCCC1	25
COc1ccc(/C=C/c2cc(O)cc(O[C@@H]3O[C@H](CO)[C@@H](O)[C@H](O)[C@H]3O)c2)cc1	10
CCCN(CCC)S(=O)(=O)c1ccc(C(=O)Nc2cccc(SC)c2)cc1	u
(list continues)
SMILES	NOMO-1 viab
C[C@H](CO)N1C[C@H](C)[C@H](CN(C)S(C)(=O)=O)Oc2ccc(NS(=O)(=O)c3cccs3)cc2CC1=O	7
C[C@H](CO)N1C[C@H](C)[C@H](CN(C)Cc2ccc(Oc3ccccc3)cc2)Oc2ccc(NC(=O)Nc3cccc4ccccc34)cc2CC1=O	10
C[C@@H]1CN([C@H](C)CO)C(=O)c2cccc(NC(=O)Nc3ccc(C(F)(F)F)cc3)c2O[C@@H]1CN(C)Cc1ccccc1	75
C[C@H]1CN([C@@H](C)CO)C(=O)Cc2cc(NC(=O)Cn3cnnn3)ccc2O[C@H]1CN(C)S(=O)(=O)c1ccccc1	32
CCCCCCCCCCCCCC(=O)N[C@H](C)[C@@H](O)c1ccccc1	-9
Cc1noc(C)c1NC(=O)Nc1cccc2c1O[C@H](CN(C)Cc1ccncc1)[C@@H](C)CN([C@H](C)CO)C2=O	-3
C[C@@H]1CN([C@@H](C)CO)C(=O)c2cccc(NC(=O)Nc3ccc(C(F)(F)F)cc3)c2O[C@@H]1CN(C)S(C)(=O)=O	37
C[C@H](CO)N1C[C@H](C)[C@H](CN(C)Cc2ccc(C(F)(F)F)cc2)Oc2ccc(NC(=O)CCC(F)(F)F)cc2CC1=O	34
O=[N+]([O-])c1ccc(O)c(Nc2ncnc3ccccc23)c1	-14
COc1cccc(NC(=O)C(C)N(c2cc(C)cc(C)c2)S(C)(=O)=O)c1 (stereo unspecified)	26
COc1ccc(S(=O)(=O)N(C)C[C@H]2Oc3ccc(NS(=O)(=O)c4ccc(F)cc4)cc3C(=O)N([C@H](C)CO)C[C@@H]2C)cc1	11
C[C@H](CO)N1C[C@H](C)[C@H](CN(C)C)Oc2ccc(NC(=O)NC3CCCCC3)cc2CC1=O	30
Cc1noc(C)c1NC(=O)Nc1cccc2c1O[C@@H](CN(C)S(=O)(=O)c1ccc(F)cc1)[C@@H](C)CN([C@H](C)CO)C2=O	-3
COc1ccccc1NC(=O)CSc1ncccn1	22
C[C@@H]1CN([C@@H](C)CO)C(=O)c2cccc(NC(=O)Nc3ccc(C(F)(F)F)cc3)c2O[C@H]1CN(C)C	55

Some of the entries so far, in markdown:
| Molecule | NOMO-1 viab |
| --- | --- |
| COc1ccc(S(=O)(=O)Nc2ccc3c(c2)CC(=O)N([C@H](C)CO)C[C@H](C)[C@H](CN(C)C(=O)NC2CCCCC2)O3)cc1 | -1 |
| Cn1c(SCC(=O)Nc2ccc(Oc3ccccc3)cc2)nnc1-c1ccccn1 | 6 |

Single values from the entries so far:
NOMO-1 viab result of CCCCCCCCCCCCCC(=O)N[C@H](C)[C@@H](O)c1ccccc1 = -9
NOMO-1 viab result of COc1cccc(NC(=O)C(C)N(c2cc(C)cc(C)c2)S(C)(=O)=O)c1 (stereo unspecified) = 26
NOMO-1 viab result of C[C@H]1CN([C@@H](C)CO)C(=O)Cc2cc(NC(=O)Cn3cnnn3)ccc2O[C@H]1CN(C)S(=O)(=O)c1ccccc1 = 32
NOMO-1 viab result of C[C@@H]1CN([C@@H](C)CO)C(=O)c2cccc(NC(=O)Nc3ccc(C(F)(F)F)cc3)c2O[C@H]1CN(C)C = 55

The list is partial; rates above refer to the full screens.
